# VDR inh: inhibitors of human vitamin D receptor | Potency, µM, for the others: max response, negative = inhibition, hits mostly inhibitors | VDR-SRC2-3 peptide fluorescence polarization, 2 h | P11473 | 400,000 compounds, 0.93% hits | AID 504847; active = well fitted inhibition curve with a large enough effect; inconclusive = small, poorly fitted or top-dose-only effect, or another doubt; inactive = no such curve, though single readings can be large or run the other way; note: series mostly up to about 120 µM
# Target sequence (P11473 whole entry, looked up): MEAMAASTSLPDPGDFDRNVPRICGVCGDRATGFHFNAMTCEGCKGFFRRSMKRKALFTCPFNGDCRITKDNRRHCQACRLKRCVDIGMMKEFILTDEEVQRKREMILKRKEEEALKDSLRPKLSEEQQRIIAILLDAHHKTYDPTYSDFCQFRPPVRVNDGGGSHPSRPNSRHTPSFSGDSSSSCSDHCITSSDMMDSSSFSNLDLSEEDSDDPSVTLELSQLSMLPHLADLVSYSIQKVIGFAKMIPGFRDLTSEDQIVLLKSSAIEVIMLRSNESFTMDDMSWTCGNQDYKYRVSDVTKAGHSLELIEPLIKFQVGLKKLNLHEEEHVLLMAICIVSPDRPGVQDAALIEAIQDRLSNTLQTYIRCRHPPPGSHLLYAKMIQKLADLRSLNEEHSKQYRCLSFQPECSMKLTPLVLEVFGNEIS
#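 Reagent solutions, kept cold and dark, are dispensed first; compounds are then pinned in at 23 nl, plates briefly spun, and incubated 2 h at ambient temperature. Inhibition of VDR–SRC2-3 peptide binding is read by fluorescence polarization.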
# * = called active by the depositor; ? = inconclusive; & = joins results of further samples. % is set by controls: 0 for no effect and ±100 for the full control effect; potency is the fitted concentration of half-maximal effect. Only part of the results is shown; count on the stated rates, not on these rows.
VDR inh | Compound
? | CCN(C(=O)CN1C(=O)COc2ccc(S(=O)(=O)N3CCCCCC3)cc21)c1cccc(C)c1
-27.3% | Cc1noc(C)c1-c1nc(CSc2ccc(Cl)cc2)no1
4.7% | Cc1cc(Oc2ccccc2)nc(N)n1
3.5% | COc1ccc(C(=O)/C=C/Nc2cc(C)on2)cc1
-4.9% | COc1cccc(C(=O)COC(=O)c2ccc(NC(=O)c3ccccc3)cc2)c1
4.5% | N#Cc1cnn(-c2ccccc2)c1NC(=O)c1ccccc1F
-21.5% | O=C(Nc1cccc2ncccc12)c1ccccc1Cl
8.7% | CN1CCN(C(c2cccc(C(F)(F)F)c2)c2nnnn2C(C)(C)C)CC1 (configuration not stated)
-2.7% | CCN1CCN(CCNC(=O)c2ccc3c(c2)N(Cc2ccc(F)cc2)C(=O)/C(=C/c2ccccc2)S3)CC1
18.8% | C=CCN1C(=O)S/C(=C\c2ccc(N3CCOCC3)cc2C)C1=O

# Remaining list, next part.
VDR inh | Compound
10.1% | Cc1ccc(-n2cc(CN(C)Cc3nccn3C)c(-c3cccc(C)c3)n2)cc1
6.4% | Cc1ccccc1NC(=O)COc1ccccc1C
11.9% | Cn1c(Cn2c(=O)sc3ccccc32)nnc1SCC(=O)Nc1ccccc1F
-7.0% | CC(=O)c1ccc(NC(=O)Cn2c(=O)c3cccn3c3ccccc32)cc1
-11.1% | COc1cc(NC(=O)CN2C(=O)C(=O)N(C3CCCC3)C2=O)cc(OC)c1
0.5% | O=C(c1ccccc1F)N1CCN(c2ncccn2)CC1
-5.8% | CCN(CC(=O)NC1CCS(=O)(=O)C1)S(=O)(=O)c1cc(Br)ccc1Br (configuration not stated)
7.1% | COc1cccc2cc(CC(=O)c3ccc(C)c(C)c3)c(=O)oc12
-9.3% | Fc1ccc2[nH]c3c(N4CCc5ccccc5C4)ncnc3c2c1
-9.6% | COC(=O)C(C)NC(=O)C12CC3CC(C1)CC(c1ccc(C)cc1)(C3)C2 (configuration not stated)

# Some values from the results shown:
# `Cc1cc(Oc2ccccc2)nc(N)n1` @ VDR inh = 4.7%
# `CCN1CCN(CCNC(=O)c2ccc3c(c2)N(Cc2ccc(F)cc2)C(=O)/C(=C/c2ccccc2)S3)CC1` @ VDR inh = -2.7%
# `O=C(c1ccccc1F)N1CCN(c2ncccn2)CC1` @ VDR inh = 0.5%
# `O=C(Nc1cccc2ncccc12)c1ccccc1Cl` @ VDR inh = -21.5%

# (cont.)
VDR inh | Compound
-2.8% | CCCOc1ccc(Cn2c(=O)oc3ccc(C)cc32)cc1OC
11.9% | Cc1ccccc1NC(=O)Cn1c(=O)n(Cc2ccc3c(c2)OCO3)c(=O)c2oc3ccccc3c21
-19.8% | COc1ccc(CCNC(=O)CSCC(=O)Nc2ccccc2)cc1OC
-0.4% | Cc1ccccc1-n1nnnc1SCc1ncc(-c2ccccc2)o1
7.9% | Cc1nc(NC(=O)CN2CCCCC2)sc1C(=O)N(C)C
-22.1% | OCCC1CN(Cc2cnc(-c3cccc4ccccc34)nc2)CCN1C1CCCCC1 (configuration not stated)
5.1% | C=CCn1c(Cc2csc(N)n2)nnc1SCC(=O)Nc1ccccc1C(F)(F)F
-5.1% | Cc1ccccc1NC(=S)NCc1ccco1
-5.7% | COc1cc2[nH]c(=O)n(Cc3ccc(C(=O)NCC4CCCO4)cc3)c(=O)c2cc1OC (configuration not stated)
-5.8% | O=C(Nc1ccccc1)N(CCCN1CCOCC1)Cc1cccs1

# Brought forward from above: three compounds, followed by the next part.
VDR inh | Compound
-5.1% | Cc1ccccc1NC(=S)NCc1ccco1
-5.7% | COc1cc2[nH]c(=O)n(Cc3ccc(C(=O)NCC4CCCO4)cc3)c(=O)c2cc1OC (configuration not stated)
-5.8% | O=C(Nc1ccccc1)N(CCCN1CCOCC1)Cc1cccs1
11.5% | COC(=O)c1ccccc1NC(=O)c1cc2nc(C3CC3)cc(C(F)(F)F)n2n1
-24.5% | Cc1ccccc1-c1nnc(SCC#N)o1
-6.1% | CC(C)NC(=O)Nc1cccc2c1O[C@H](CN(C)C(=O)Nc1ccc(C(F)(F)F)cc1)[C@@H](C)CN([C@H](C)CO)C2=O
2.0% | O=C(c1ccccc1)c1ccc(N2CCCC2)cc1
2.6% | O=C(Nc1ccccc1Cl)c1ccc2c(=O)n3c(nc2c1)CCC3
0.7% | CC(C)=NNc1nc2c(c(=O)[nH]c(=O)n2C)n1CCCc1ccccc1
4.1% | COc1ccc(Cl)cc1NC(=O)CN(C)CC(=O)NCc1cccs1
-1.3% | C/C(=N\NC(N)=O)c1ccccc1Cl
? | CC(=O)c1ccccc1OC(=O)COc1ccc(Cl)cc1C
6.6% | CCOC(=O)C12CC1/C(=N/O)c1ccccc1O2 (configuration not stated)

# The list goes on:
VDR inh | Compound
0.6% | C=CCOc1ccccc1/C=N/O
-10.5% | Cc1ccc(Cl)cc1NC(=O)C(NS(=O)(=O)c1cccc2nsnc12)c1ccccc1 (configuration not stated)
12.5% | CC1CN(S(=O)(=O)c2ccc(C(=O)O)cc2)CC(C)O1 (configuration not stated)
15.3% | Cc1ccc(S(=O)(=O)N2CCC(C)CC2)cc1C(=O)NCc1ccccn1
2.5% | CC(Oc1cccc(Cl)c1)C(=O)Nc1nc(-c2ccccn2)cs1 (configuration not stated)
4.5% | CN(C)/C=C/C(=O)c1cnc(-c2ccccc2Cl)s1
-4.3% | CCOC(=O)c1nc2sc3c(c2c(=O)[nH]1)CCCC3
5.9% | Cc1nccn1-c1cc(C(C)(C)C)nc2c(-c3ccccc3)cnn12
-3.3% | Cc1ccc(C(=O)N(CN2CCCC2=O)c2ccc(F)cc2)cc1
6.6% | COc1ccc(OC)c(NC(=O)C2CCN(c3cc(-c4ccccc4)nc4ncnn34)CC2)c1

# Going on with the list:
VDR inh | Compound
-16.6% | Cc1ccc(-n2ncc3c(NNC(=O)c4ccco4)ncnc32)cc1C
-8.7% | CSc1nnc(CNC(=O)c2ccccc2)n1-c1cccc(C)c1
-27.0% | CCC(=O)Oc1ccc2c(C)cc(=O)oc2c1C(=O)c1ccccc1
21.7% | Cc1cc(C)c(S(=O)(=O)N2CCN(C(=O)c3cccs3)CC2)c(C)c1
-4.7% | COc1ccccc1/C=C/C=N/NC(=O)CCn1nnc2ccccc21
-14.3% | COCCN1CN(S(=O)(=O)c2ccc(Cl)cc2)c2nc3ccccc3nc21
-5.8% | CCOC(=O)N1CCN(C(=O)Cn2nc(C)n3nc(-c4ccccc4)cc3c2=O)CC1
1.9% | COc1cccc(CN2CCNC(=O)C2CC(=O)N(C)CC2CCOCC2)c1OC (configuration not stated)
-20.3% | Cc1cc(NC(=O)CCC(=O)NNC(=O)c2ccc(C(C)(C)C)cc2)no1
2.4% | COc1ccc(C)cc1S(=O)(=O)N(CC(N)=O)Cc1ccccc1

# (list continues)
VDR inh | Compound
-6.1% | COc1ccccc1C(=O)NC(=O)COC(=O)c1ccc([N+](=O)[O-])cc1Cl
2.7% | COCCN(C(=O)COC(=O)CNC(=O)c1ccc(C)cc1)c1c(N)n(Cc2ccccc2)c(=O)[nH]c1=O
-20.3% | Cc1nc(SCc2nc3ccccc3[nH]2)c2oc3cc(Br)ccc3c2n1
-0.6% | CCn1cc(C(=O)N2CCN(c3ccc(OC)cc3)CC2)c(=O)c2cc(S(=O)(=O)N3CCCCC3)ccc21
-2.2% | Cc1ccccc1NC(=S)Nc1cccc2cnccc12
-0.6% | CC1(C)CC(=O)c2cc(C(=O)Nc3ccc(Br)cc3)c(=O)n(-c3ccc(Cl)cc3)c2C1
-2.0% | CCN(C(=O)COC(=O)/C=C/c1ccco1)c1c(N)n(Cc2ccccc2)c(=O)[nH]c1=O
-15.9% | O=C(CC1Sc2ccccc2NC1=O)OCc1cc(=O)oc2cc(O)ccc12 (configuration not stated)
2.2% | CCN1C(=O)[C@H]2[C@H]3CN=C(SCc4ccc(Cl)cc4)N3[C@@](C)(C(=O)OC)[C@H]2C1=O
-14.4% | O=C(NC(=S)NCc1cccnc1)c1ccccc1[N+](=O)[O-]

# (more compounds)
VDR inh | Compound
-18.9% | Cc1cc2c(c(C)c1CCO[C@@H]1O[C@H](CO)[C@@H](O)[C@H](O)[C@H]1O)C(=O)[C@@H](C)[C@@H]2O
-8.6% | Cc1ccc(-c2cc3ncc4c(n3n2)-c2cc(Cl)ccc2OC4)cc1
4.3% | Cc1cccc(C)c1OCCN1C(=O)NC(C)(c2ccccc2)C1=O (configuration not stated)
13.5% | CC1=NNC(=O)C1CC(=O)N/N=C/C(C)=C/c1ccccc1 (configuration not stated)
-13.1% | Cc1c(CC(=O)O)c(=O)oc2cc(OCc3ccc(F)cc3F)ccc12
10.5% | COC(=O)c1ccc(CNC(=O)CSc2nnc(COc3ccccc3)n2C)o1
? | Cc1cnccc1CN(C)C(=O)C1CCC(=O)N(Cc2ccccc2F)C1 (configuration not stated)
-4.6% | CCN(CC)S(=O)(=O)c1ccc(-c2nnc(SCC(=O)N3CCc4ccccc43)o2)cc1
-7.6% | Cc1ccccc1NC(=S)NC(C)CCc1ccccc1 (configuration not stated)
? | CC(C)C1=CC2=CCC3[C@@](C)(CCC[C@@]3(C)C(=O)O)C2CC1 (some centres not stated)

# Continuation.
VDR inh | Compound
-3.2% | O=C(NCCCNC(=O)c1ccco1)c1ccc(Cl)cc1
8.5% | O=C(Nc1ccccc1)/C(=C/c1ccc(O)cc1)NC(=O)c1ccco1
-3.9% | CCCCNC(=O)CN1CCN(Cc2ccc3cc(OC)ccc3c2)CC1
-5.4% | Cc1cc(C)c2nc(C)cc(Nc3ccc(C(=O)N(C)C)cc3)c2c1
-9.7% | N#CCC(=O)Nc1ccc(C(=O)OCC(=O)NC(=O)Cc2ccccc2)cc1
0.9% | CCOc1cc2nc(-c3ccc(OC)c(OC)c3)nc(NCCCN3CCOCC3)c2cc1OC
-3.1% | CN1C(=O)C(C)(C)c2cc(S(=O)(=O)NCCc3ccc(Cl)cc3)ccc21
4.3% | COc1ccc(C(=O)COC(=O)c2sc(C)nc2C)cc1F
-2.0% | C1=C(CCNc2ncnc3c2[nH]c2ccccc23)CCCC1
-3.0% | CCc1c(C)nc(SCc2nc(-c3ccccc3C)no2)[nH]c1=O

# Continued:
VDR inh | Compound
1.3% | O=C(NC(=S)Nc1cccc(NC(=S)NC(=O)c2ccco2)n1)c1ccco1
0.1% | COc1ccc(NC(=O)NS(=O)(=O)c2ccc(C)cc2)cn1
4.8% | CC(C)CN1CCC(=O)N([C@H](CO)c2ccccc2)CC1
-14.7% | O=c1c2sc3ccccc3c2n(Cc2cccc(Cl)c2)c(=O)n1Cc1ccccc1
-9.4% | Cc1ccc(C(=O)N[C@H](C(=O)Nc2ccc(N3CCOCC3)cc2)C(C)C)cc1
6.2% | CC(=O)Oc1ccc2ccccc2c1C(NC(=O)Cc1ccccc1)c1ccccc1 (configuration not stated)
9.2% | CC(=O)Nc1nnc(SCc2ccc(C(=O)Nc3ccccc3F)cc2)s1
-2.2% | CCOC(=O)C1=C(O)/C(=C\c2ccc(OC)c(OC)c2)N=C1C
-20.9% | CN1CCN(c2ccc(NC(=O)c3cc([N+](=O)[O-])ccc3N3CCOCC3)cc2)CC1
-1.5% | O=C(COC(=O)c1ccccc1O)NCc1ccco1

# Further records
VDR inh | Compound
-3.4%&13.8% | O=C(CCn1c(=O)c2cccn2c2ccccc21)Nc1ccc(F)cc1
9.1% | O=C(CN1CCCCC1)Nc1nnc(-c2ccc([N+](=O)[O-])cc2)s1
12.0% | COc1ccccc1NC(=O)c1cc2n(n1)C(C(F)(F)F)CC(c1ccc3c(c1)OCO3)N2 (configuration not stated)
-15.9% | COc1cccc(NC(=O)COC(=O)c2c(C)nn(-c3ccccc3)c2C)c1
10.6% | Cc1occc1C(=O)N/N=C/c1ccc(Cl)c([N+](=O)[O-])c1
0.3% | O=C1CC(N(O)c2ccccc2)C(=O)N1c1cc(Cl)cc(Cl)c1 (configuration not stated)
17.1% | Cc1ccc(NC(=S)N2CCN(S(=O)(=O)c3ccccc3)CC2)cc1C
5.5% | COc1ccc(S(=O)(=O)N2CCCCC2)cc1NC(=O)C1CCCO1 (configuration not stated)
3.7% | COC(=O)c1[nH]c2ccc(Br)cc2c1NC(=O)Oc1ccccc1
6.4% | CCN1CCN(C(=O)Cn2ncc3c([nH]c4ccc(C)cc43)c2=O)CC1

# Next part.
VDR inh | Compound
10.2% | CN(C(=O)CSc1cc(C(=O)c2nccn2C)c2ccccc2n1)c1ccccc1
4.8% | O=C(c1ccccc1)N1CCN(c2ccccc2)CC1
-11.3% | Cn1cc(CN2CCC(C(O)CCc3ccccc3)CC2)c(-c2ccccc2F)n1 (configuration not stated)
4.6% | NC[C@@H]1O[C@H](O[C@H]2[C@H](O)[C@@H](O[C@H]3[C@H](O)[C@H](N)C[C@H](N)[C@H]3O[C@@H]3O[C@H](CO)[C@@H](O)[C@H](O)[C@@H]3N)O[C@H]2CO)[C@@H](N)[C@H](O)[C@@H]1O
-2.0% | O=C(NCc1n[nH]c(=O)c2ccccc12)C1CC(=O)N(c2ccc(Cl)cc2)C1 (configuration not stated)
-4.2% | CCCN1C(=O)c2cc(C(=O)Nc3ccc(OC)cc3OC)ccc2C1Nc1ccc(OC)cc1OC (configuration not stated)
10.3% | CCCCC(CC)CNC(=O)CCCn1c(=O)[nH]c2ccsc2c1=O (configuration not stated)
-5.5% | CC(C)(C)N=C(NS(=O)(=O)c1cccs1)c1ccccc1
-0.6% | O=c1oc2ccccc2cc1-c1cn2cc(Cc3ccc(F)cc3)sc2n1
-5.1% | CCn1cc(Br)c(C(=O)Nc2sc3c(c2C(N)=O)CCCC3)n1

# Next part.
VDR inh | Compound
4.0% | Cc1nc(-c2ccccc2)sc1-c1ccc(SCC(=O)Nc2cccc(C(F)(F)F)c2)nn1
-23.0% | Cc1ccc(OCCn2cc(C(=O)c3cccs3)c3ccccc32)cc1
-0.6% | COc1ccnc(Nc2cccc(C)c2)c1C#N
3.4% | CCOC(=O)CCCNC(=O)COC(=O)CCC(=O)c1ccc(F)cc1
3.4% | COc1ccc(/C=N/Nc2nncc3ccccc23)cc1
8.3% | CS(=O)(=O)Nc1ccc(-c2nc3ccccc3s2)cc1

# Source: PubChem (National Center for Advancing Translational Sciences (NCATS))
